PLK1 PBD inh – PLK1 (human) polo-box domain binding inhibition | actives 2.8% (n = 360,000) | Potency, µM, inactives show max response, negative = inhibition, most hits filed as inhibitors | Plk1 PBD binding of FITC phosphopeptide, fluorescence polarization; note: potency is the fitted concentration of half-maximal effect; series mostly up to about 57 µM; % is set by controls: 0 for no effect and ±100 for the full control effect; nearly all actives have a fitted effect of over 65% in size
EPAC1 agonist – agonists of human EPAC1; O95398; AID 720707; Potency, µM (series often up to 154 µM), for the others: top-dose activation, actives largely listed as activators; EPAC1 agonist qHTS, biochemical assay; response scale: 100% = response to 6.5 mM cAMP; actives 0.073% (n = 360,000); note: potency is the fitted concentration of half-maximal effect; nearly all actives have a fitted effect of over 60% in size
Target sequence (O95398 whole entry, looked up): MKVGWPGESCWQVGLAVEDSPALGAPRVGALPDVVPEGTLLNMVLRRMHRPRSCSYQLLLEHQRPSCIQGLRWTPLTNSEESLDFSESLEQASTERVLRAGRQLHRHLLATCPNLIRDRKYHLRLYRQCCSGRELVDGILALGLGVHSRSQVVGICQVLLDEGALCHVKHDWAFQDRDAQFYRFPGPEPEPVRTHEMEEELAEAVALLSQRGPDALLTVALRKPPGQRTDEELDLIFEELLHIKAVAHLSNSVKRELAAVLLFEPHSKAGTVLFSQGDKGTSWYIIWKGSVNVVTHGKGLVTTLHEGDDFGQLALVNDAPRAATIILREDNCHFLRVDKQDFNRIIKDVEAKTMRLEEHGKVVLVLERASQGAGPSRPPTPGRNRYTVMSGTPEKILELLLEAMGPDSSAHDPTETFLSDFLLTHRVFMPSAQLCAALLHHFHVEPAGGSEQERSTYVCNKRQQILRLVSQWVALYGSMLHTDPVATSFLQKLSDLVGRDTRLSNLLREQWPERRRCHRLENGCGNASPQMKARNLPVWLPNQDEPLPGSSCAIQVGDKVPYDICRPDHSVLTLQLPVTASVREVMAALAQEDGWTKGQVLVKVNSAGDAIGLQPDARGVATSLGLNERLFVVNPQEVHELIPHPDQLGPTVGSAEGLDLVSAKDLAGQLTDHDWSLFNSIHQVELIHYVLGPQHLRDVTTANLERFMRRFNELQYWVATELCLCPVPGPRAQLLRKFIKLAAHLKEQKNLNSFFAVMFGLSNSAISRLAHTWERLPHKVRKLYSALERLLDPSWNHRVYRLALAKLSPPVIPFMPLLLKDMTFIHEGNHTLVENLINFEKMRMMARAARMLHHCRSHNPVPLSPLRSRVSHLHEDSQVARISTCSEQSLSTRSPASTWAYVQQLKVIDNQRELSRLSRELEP
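Fluorescent GDP-exchange assay: 100 nM EPAC1 with 250 nM Rap1B preloaded with BODIPY-GDP and 50 uM GDP; compounds tested as concentration series, 5 min at room temperature, then read every 5 min for 30 min (ex 480/em 540 nm); normalized to 6.5 mM cAMP.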
EPAC1 antag – EPAC1 (human) antagonism; actives 0.14% (n = 360,000); Potency, µM (top dose mostly 115 µM), inactives show top-dose activity change, negative = inhibition, usual class: inhibitors; AID 720709; EPAC1 GEF assay, Rap1b-BODIPY-GDP exchange fluorescence;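 note: potency is the fitted concentration of half-maximal effect; plate controls were vehicle for no effect and positive control for full effect; nearly all actives have a fitted effect of over 50% in size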
GLP-1R agonist – GLP-1 receptor (human) agonism; HEK293 GLP-1R CRE-luciferase, luminescence, 4-6 h; cells express a hypersensitive GLP-1R form; actives 0.007% (n = 380,000); Potency, µM (top dose mostly 45.6 µM), for inactives: top-dose activation, actives largely listed as activators; note: potency is the fitted concentration of half-maximal effect; % of control where 0% means no effect
IL2 activator – IL-2 activation; activation, % (series mostly up to about 46 µM); IL-2 activation reporter assay, cell-based qHTS; stimulated with anti-CD3/CD4/CD28 beads; in transgenic mouse T cells; actives 0.065% (n = 360,000); in the data active = activation above about 50%; inconclusive = mostly about 30% to 49%; note: 0% is about no effect
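Screening format: compound pinned onto unstimulated transgenic mouse T cells, 60 min incubation, then anti-CD3/anti-CD4/anti-CD28 bead stimulation for 18 hours at 37 degrees C, followed by EGFP and DsRed detection.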
GLP1R inv ag – inverse agonists of human GLP-1 receptor. HEK293 GLP-1R CRE-luciferase, luminescence, 24 h; GLP-1R form is constitutively active. Potency, µM (highest dose often 38.3 µM), for inactives: at the top dose activity change, negative = inhibition, most hits filed as inhibitors. actives 1.6% (n = 410,000). AID 624417; note: potency is the fitted concentration of half-maximal effect; % is set by controls: 0 for no effect and ±100 for the full control effect; nearly all actives have a fitted effect of over 55% in size
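GLP-1R inverse agonism mode: basal reporter luminescence in engineered HEK293 cells measured after one day of compound exposure at 37 deg C, with a 12 min room-temperature detection step.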
HEK293 tox – cytotoxicity in counter-screen for GLP-1R inverse agonists; HEK293 cAMP-luciferase reporter cells, luminescence, 24 h; Potency, µM (series often up to 38.3 µM), without a hit: top-dose activity change, negative = inhibition, hits mostly inhibitors; actives 0.13% (n = 410,000);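 note: loss of luciferase light is scored as toxicity; potency is the fitted concentration of half-maximal effect; % is set by controls: 0 for no effect and ±100 for the full control effect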
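Cells in DMEM/10% Nu serum/1% pen-strep, 1536-well format. Pre-incubated 12 h, dosed with 23 nL compound, incubated a further 24 h. Luciferase detection, 12 min at room temp, luminescence.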
An asterisk follows results filed as active; ? = inconclusive; [ ] = dose if it differs, or a comment. Unless noted, calls come from the whole dose curve; as a rule, active = well fitted curve in the direction sought with a large enough effect; inconclusive = small, poorly fitted or top-dose-only effect, or another doubt; inactive = no such curve, though single readings can be large; an effect the other way counts as inactive or inconclusive. Some of the compounds tested (hit frequency here may not be typical).

no. | Compound | PLK1 PBD inh | EPAC1 agonist | EPAC1 antag | GLP-1R agonist
1 | COc1cccc(C(=O)NCCS(=O)(=O)N2CC(C)CC(C)C2)c1 (configuration not stated) | -2% | -5% | -7% | -4%
2 | O=C(NN1CC(C(=O)OCc2ccc(Br)cc2)CC1=O)c1ccccc1 (configuration not stated) | -2% | -3% | 20% | -2%
3 | CC(C)[C@@H](C(=O)OCC(=O)c1ccc2c(c1)NC(=O)CO2)N1C(=O)c2ccccc2C1=O | -9% | 10% | -17% | 16%
4 | CCOc1ccc(NC(=O)c2cnsn2)cc1 | -1% | 4% | 3% | -12%
5 | CCOC(=O)N1CCN(C(=O)c2ccc3c(c2)NC(=O)/C(=C\c2ccc(OC)c(OC)c2)S3)CC1 | 7% | -33%[inhibitor] | -9% | 6%
6 | CCCCOC(=O)/C=C/c1ccc(OC(=O)OC)c(OC(=O)OC)c1 | -13% | 7% | -19% | -4%
7 | N#CC(c1ccccc1)(c1ncc(C(F)(F)F)cc1Cl)N1CCOCC1 (configuration not stated) | 1% | -4% | 7% | 0%
8 | COc1ccc(/C=C/C(=O)NC(=S)N2CCCC(C(N)=O)C2)cc1 (configuration not stated) | -19% | 2% | -19% | -2%
9 | COc1ccc(/C=N/NC(=O)c2ccc(NS(=O)(=O)c3cccs3)cc2)cc1 | -10% | 13% | -23% | -8%
10 | CCOC(=O)c1c(-c2ccccc2)nnn1-c1nc(OCC)nc(N2CCCCC2)n1 | -15% | -2% | -14% | -13%
11 | CCOC(=O)N1CCN(C(=O)c2ccc3c(c2)NC(=O)/C(=C/c2ccccc2)S3)CC1 | -13% | -10% | 1% | 0%
12 | CCOc1ccccc1NC(=O)c1cccc(N2C(=O)CCC2=O)c1 | -13% | -4% | 2% | 5%
13 | CC(C)(C)NC(=O)CSc1nc(O)cc(=O)[nH]1 | -21% | -6% | 6% | -1%
14 | CCOC(=O)N1CCN(C(=O)NC23CC4CC(CC(C4)C2)C3)CC1 | -3% | -8% | 17% | 1%
15 | O=C(Nc1ccccc1Oc1ccccc1)c1cccc([N+](=O)[O-])c1 | -2% | 5% | 10% | 5%

no. | IL2 activator | GLP1R inv ag | HEK293 tox
1 | 0.8 | -6% | -7%
2 | -5.4 | 4% | -3%
3 | 0.6 | 3% | 2%
4 | -1.2 | ? | 0%
5 | -0.8 | 40%[activator] | 1%
6 | -0.4 | 14% | -28%
7 | -0.2 | 1% | -3%
8 | -0.5 | -3% | -7%
9 | 1.3 | 19% | -4%
10 | -0.8 | ? | ?
11 | -3.7 | 8% | -6%
12 | -3.6 | 22% | -10%
13 | -0.5 | 5% | -7%
14 | -0.6 | 3% | 3%
15 | -0.1 | -22% | -12%

Molecules above containing a halogen (two):
no. | Compound | PLK1 PBD inh | EPAC1 agonist | EPAC1 antag | GLP-1R agonist
2 | O=C(NN1CC(C(=O)OCc2ccc(Br)cc2)CC1=O)c1ccccc1 (configuration not stated) | -2% | -3% | 20% | -2%
7 | N#CC(c1ccccc1)(c1ncc(C(F)(F)F)cc1Cl)N1CCOCC1 (configuration not stated) | 1% | -4% | 7% | 0%

no. | IL2 activator | GLP1R inv ag | HEK293 tox
2 | -5.4 | 4% | -3%
7 | -0.2 | 1% | -3%

The results go on:
no. | Compound | PLK1 PBD inh | EPAC1 agonist | EPAC1 antag | GLP-1R agonist
16 | COc1cc(C(=O)OCCC(C)C)cc(OC)c1O | 2% | 1% | 0% | -4%
17 | CC1(C)CN(C(=S)Nc2ccc(F)cc2F)C1=O | -8% | 4% | 14% | 3%
18 | O=C(O)/C=C/C(=O)Nc1c(F)cccc1F | 5% | 2% | 5% | -6%
19 | Cc1cc(-c2csc(NC(=O)c3ccc(=O)[nH]c3)n2)c(C)n1Cc1ccco1 | -9% | -4% | ? | 0%
20 | N#CC(C#N)=C(Nc1ccc(F)cc1)SCc1cccc(F)c1 | ? | 5% | -14% | 1%
21 | CN1c2ccccc2Oc2c(c(=O)n(C)c(=O)n2C)C1c1cccc([N+](=O)[O-])c1 (configuration not stated) | -1% | 14% | -4% | 0%
22 | CC(C)CCNC(=O)[C@@H](NC(=O)c1c(F)cccc1F)C(C)C | -7% | 2% | -15% | -2%
23 | CC(C)c1ccc(-c2c(NCCc3ccccc3)c(=O)c2=O)cc1 | -2% | -6% | -9% | 3%
24 | CCc1ccc(N2C(=O)c3sc4nnc(-c5ccccc5)c(=O)n4c3C2=O)cc1 | ? | 12% | -11% | -21%
25 | COc1ccccc1NC(=O)N(Cc1ccccc1)C1=NCC(C)S1 (configuration not stated) | 1% | 2% | 6% | 20%
26 | CC1CN(C(=O)COC(=O)Cc2c(F)cccc2Cl)CC(C)O1 (configuration not stated) | -11% | 7% | -23% | 0%
27 | COc1ccc(/C=C2/S/C(=N/N=C3\CC4CCC3(C)C4(C)C)NC2=O)cc1 (configuration not stated) | -1% | 7% | ? | -17%
28 | Cc1sc(NC(=O)C2CC(Cl)=CCC2C(=O)O)c(C#N)c1C (configuration not stated) | -2% | -11% | 17% | 6%
29 | FC(F)(F)c1cccc(CN2CCCCCC2)c1 | -4% | 7% | -5% | -8%
30 | COc1ccc(/C=C2\N=C(C)N(c3ccc(C(=O)O)cc3)C2=O)cc1OC | 6% | -3% | 8% | 0%

no. | IL2 activator | GLP1R inv ag | HEK293 tox
16 | -0.6 | 12% | 5%
17 | -2.5 | -10% | -12%
18 | 0.5 | 13% | 4%
19 | 0.7 | ? | 0%
20 | -0.6 | ? | -9%
21 | 0.7 | -17% | 1%
22 | 0.1 | 8% | 8%
23 | -0.3 | 5% | -1%
24 | 1.4 | 1% | 5%
25 | 0.0 | 0% | -20%
26 | 0.1 | -21% | 3%
27 | 0.0 | -11% | 3%
28 | 0.5 | -15% | -12%
29 | -2.0 | -3% | -15%
30 | 1.8 | -2% | -5%

Quoted from the listing:
Result of cpd 1 under IL2 activator: 0.8
Result of cpd 29 under IL2 activator: -2.0
Result of cpd 4 under EPAC1 antag: 3%

Carrying on.
no. | Compound | PLK1 PBD inh | EPAC1 agonist | EPAC1 antag | GLP-1R agonist
31 | CC1=C(C(=O)Nc2ccccc2)C(c2ccncc2)n2nnnc2N1 (configuration not stated) | -7% | 2% | 11% | -12%
32 | COC(=O)C1=NN(c2cccc(C)c2)C2C(=O)N(c3ccccc3OC)C(=O)C12 (configuration not stated) | -3% | -3% | -8% | 1%
33 | CCCN(CC)c1ncnc2[nH]ncc12 | -3% | 10% | -4% | -9%
34 | CC(C)(C)S(=O)(=O)N1C[C@H]2CC/C=C\C/C=C\2[C@@H]1CCO | -4% | 5% | 6% | -5%
35 | CCOC(=O)C1=NN(c2ccccc2)C2C(=O)N(c3ccccc3OC)C(=O)C12 (configuration not stated) | 1% | 0% | 3% | -3%
36 | O=C(NN1CC(C(=O)OCc2ccc(Cl)cc2Cl)CC1=O)c1ccccc1 (configuration not stated) | 0% | -2% | 4% | 2%
37 | CCOC(=O)c1cc2ccc3ccccc3c2oc1=O | -4% | 3% | -1% | 6%
38 | CC(=O)N1CCC(=O)N(C(C)C)c2ccccc21 | 0% | 1% | 5% | 1%
39 | O=S(=O)(Cc1ccccc1Cl)c1ncn[nH]1 | -3% | 7% | -5% | 1%
40 | CC(C)NC(=O)C(OC(=O)c1ccccc1)C(OC(=O)c1ccccc1)C(=O)O (configuration not stated) | -9% | -1% | -2% | 21%
41 | Cc1ccc(CNC(=O)C2CN(S(C)(=O)=O)c3cc(Cl)ccc3O2)cc1 (configuration not stated) | -11% | -7% | -10% | 15%
42 | FC(F)(F)c1cnc(-c2cnc3c(-c4ccc(Cl)cc4)cnn3c2)c(Cl)c1 | -10% | 6% | -8% | -1%
43 | O=C1Nc2cc(C(=O)N3CCOCC3)ccc2S/C1=C\c1ccccc1 | -4% | -3% | -16% | 1%
44 | CC(C)OCCCNC(=O)COCC(=O)Nc1ccc(OCCc2ccccc2)cc1 | 0% | -3% | -17% | 3%
45 | CC(C)(C)CCN1CCC(CN2CCNC(=O)C2=O)CC1 | -14% | -25% | -10% | -3%

no. | IL2 activator | GLP1R inv ag | HEK293 tox
31 | -2.7 | 0% | -20%
32 | -0.5 | -1% | -8%
33 | 0.5 | -40% | -2%
34 | 0.6 | 2.8µM* | 2%
35 | 1.1 | 1% | 2%
36 | -0.7 | 2% | ?
37 | -0.4 | 12% | 62%[activator]
38 | -0.5 | -4% | 75%[activator]
39 | -0.2 | 10% | 6%
40 | 1.0 | -3% | 1%
41 | 0.0 | ? | 5%
42 | -0.5 | 5% | 15%
43 | 0.2 | -19% | -15%
44 | -0.3 | ? | -8%
45 | -0.1 | 15% | 0%

Next entries:
no. | Compound | PLK1 PBD inh | EPAC1 agonist | EPAC1 antag | GLP-1R agonist
46 | COC(=O)Oc1ccc(/C=N/NC(=O)CSCc2ccccc2Br)cc1OC | -1% | 8% | -6% | 0%
47 | CN(C)CCN(C(=O)CN1C(=O)c2ccccc2C1=O)c1nc2cc3c(cc2s1)OCO3 | -7% | 0% | 2% | -18%
48 | CCCOC(=O)c1ccc(O)c(OC)c1 | -30% | -5% | 6% | 5%
49 | Cc1c(OC(C)C(=O)N2C[C@H]3C[C@@H](C2)c2cccc(=O)n2C3)ccc2c3c(c(=O)oc12)CCC3 (some centres not stated) | 1% | 5% | -7% | 2%
50 | CCOC(=O)C1CCN(C(=O)c2ccc3c(c2)NC(=O)/C(=C\c2ccc(C)cc2)S3)CC1 | 10% | 3% | 24% | -2%
51 | COc1ccc(/C=C(/Sc2nnc(-c3ccc(Cl)cc3)o2)C(=O)O)cc1 | -18% | 8% | 0% | 11%
52 | Fc1cccc(Cl)c1CSc1ncn[nH]1 | -10% | 7% | 12% | -1%
53 | COC(=O)Oc1ccc(/C=C/C(=O)OC(C)C)cc1OC(=O)OC | -16% | 6% | 1% | -8%
54 | COc1ccccc1N1C(=O)C2C(C(=O)c3ccccc3)=NN(c3ccccc3OC)C2C1=O (configuration not stated) | -7% | ? | -21% | 2%
55 | COc1ccc(CCNc2ncnc3sccc23)cc1OC | -1% | -3% | -3% | 2%
56 | O=S1(=O)CC2N=C(N(Cc3ccc(F)cc3Cl)c3ccccc3F)SC2C1 (configuration not stated) | 5% | -11% | -6% | 1%
57 | COc1ccc(C2NC(c3ccc(OC)c(OC)c3OC)C(C)C(=O)C2C)c(OC)c1OC (configuration not stated) | -4% | 4% | -12% | 5%
58 | CCCn1nnc(NC(=O)c2ccc(-c3cc(Cl)ccc3Cl)o2)n1 | -15% | 2% | -9% | 8%
59 | CCCCn1ccc(=O)c2c(C(F)(F)F)nccc21 | -1% | 12% | -9% | -13%

no. | IL2 activator | GLP1R inv ag | HEK293 tox
46 | 1.2 | 14% | -17%
47 | -2.6 | -29% | 8%
48 | 1.2 | 12% | 1%
49 | -0.3 | 6% | -8%
50 | -3.4 | ? | 2%
51 | 0.1 | 2% | 2%
52 | -4.4 | 6% | -8%
53 | 0.0 | 54%[activator] | -28%
54 | 3.2 | 8% | 13%
55 | -0.2 | 12%[0.307 µM] | -6%[0.307 µM]
56 | -1.2 | -21% | -11%
57 | -0.6 | 3% | -16%
58 | -2.1 | 9% | -6%
59 | -0.7 | -15% | 6%

Compound activity as filed in PubChem.
